# M1 antagonist – M1 muscarinic receptor (rat) antagonism; B-score at 10 µM; AID 628; CHO-M1 cells, Fluo-4 calcium, ACh EC80 antagonist mode; hits give low values; P08482; 64,000 compounds, 3.4% hits;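 active means calcium fluorescence response, raw or row-and-column corrected B-score, differing from the plate sample mean either way at a set confidence level, mostly lower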
# Target sequence (P08482 whole entry, looked up): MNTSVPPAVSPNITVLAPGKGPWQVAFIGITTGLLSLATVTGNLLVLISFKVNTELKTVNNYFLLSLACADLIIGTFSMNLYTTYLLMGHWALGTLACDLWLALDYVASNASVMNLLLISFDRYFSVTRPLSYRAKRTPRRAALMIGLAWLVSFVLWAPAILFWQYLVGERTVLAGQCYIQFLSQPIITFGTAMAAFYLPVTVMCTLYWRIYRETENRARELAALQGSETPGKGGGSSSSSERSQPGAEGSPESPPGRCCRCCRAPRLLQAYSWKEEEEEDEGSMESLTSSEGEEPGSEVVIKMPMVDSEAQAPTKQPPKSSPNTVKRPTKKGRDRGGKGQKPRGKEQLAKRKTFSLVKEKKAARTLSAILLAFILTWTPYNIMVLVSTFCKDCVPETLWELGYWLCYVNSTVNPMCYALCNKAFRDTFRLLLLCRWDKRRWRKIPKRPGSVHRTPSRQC
# Autofluor 339 – intrinsic fluorescence of library compounds, ex339/em460 – biochemical, MLSMR library, data from DPM-DC assay, artefact control, profiling panel; compound autofluorescence, ex339/em460 nm, NADH buffer; hits give high values; 1 = no-compound wells, NADH background; fluorescence fold increase at 10 µM; 65,000 compounds, 5.5% hits;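 active means at 10 µM, mean starting fluorescence two-fold or more over control wells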;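 further: signal is the first read of a kinetic run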
# Ecoli tolC – E. coli tolC mutant growth inhibition; E. coli BW25113 tolC mutant growth, OD615; growth inhibition, % at 10 µM (by protocol); 65,000 compounds, 2.2% hits; AID 573;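 active means growth inhibition at or above a cutoff equal to the mean over every tested compound plus 3 SD, cut at about 60% in these data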;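 further: growth measured after 20 h incubation at 37 °C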
#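 Signal: optical density read at 615 nm; Assay system: E. coli ΔtolC::kan strain BW25113; Times: 20 h incubation with compound, 37 °C; Dosing: 10 µM final, single dose.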
# RORA act – RORA (human) activation; CHO-K1 Gal4-RORA LBD luciferase reporter, luminescence; percent increase over mock-subtracted basal signal; activation, % at 10 µM; 65,000 compounds, 1.5% hits; AID 560;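 active means activation above the mean of all tested compounds plus 3 SD, cut at about 49% in these data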;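 further: 0% = DMSO-treated RORA cells and 100% = added signal equal to DMSO minus mock-transfected cells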
# Target sequence (P35398 whole entry, looked up, the tested form may be a part): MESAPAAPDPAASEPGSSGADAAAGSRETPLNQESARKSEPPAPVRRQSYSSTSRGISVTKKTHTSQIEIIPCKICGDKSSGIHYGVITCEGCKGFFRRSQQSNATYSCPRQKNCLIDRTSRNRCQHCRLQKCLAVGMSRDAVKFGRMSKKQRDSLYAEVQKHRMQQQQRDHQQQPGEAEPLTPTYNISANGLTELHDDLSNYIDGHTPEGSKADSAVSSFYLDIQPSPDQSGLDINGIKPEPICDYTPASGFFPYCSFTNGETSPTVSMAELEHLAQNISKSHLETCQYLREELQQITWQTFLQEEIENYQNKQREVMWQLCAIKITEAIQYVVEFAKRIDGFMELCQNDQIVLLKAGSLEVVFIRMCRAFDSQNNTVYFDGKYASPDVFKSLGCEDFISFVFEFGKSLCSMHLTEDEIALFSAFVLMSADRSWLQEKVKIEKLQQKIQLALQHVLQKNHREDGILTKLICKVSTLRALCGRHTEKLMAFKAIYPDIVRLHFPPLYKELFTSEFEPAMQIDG
# Ec RNAP inh – Escherichia coli RNA polymerase inhibition | P0A8V2 | E. coli RNA polymerase, fluorescence transcription assay | inhibition, %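 (tested at 10 µM)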 | 62,000 compounds, 0.2% hits | AID 559; in the data active means inhibition above about 20%;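 further: 0% = enzyme without compound and 100% = no enzyme blank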
# TNAP act DEA – activators of human TNAP at intermediate phosphate acceptor; activation factor at 20 µM; P05186; purified TNAP, CDP-star luminescence, 100 mM DEA, 30 min; hits give high values; scale: 0 levamisole-inhibited, 1 vehicle-only enzyme; AID 813; 64,000 tested, under 10 active;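 active means activation factor of at least 2 at 20 µM, relative to controls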
# SF-1 act – activators of human nuclear receptor SF-1; Q13285; CHO-K1 Gal4-SF-1 LBD luciferase reporter; % increase over DMSO SF-1-specific signal; activation, % at 10 µM; 65,000 compounds, 1.9% hits; AID 522;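 active means activation above the mean activation of all tested compounds plus 3 SD, cut at about 50% in these data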
#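 Test system: CHO-K1 cells co-transfected with Gal4 DBD–human SF-1 LBD, 5xGal4 luciferase reporter. Quantity: 4,000 cells per well. Compound: 10 µM only. Incubation: compound added 1 h post-seeding, 20 h exposure at 37 °C, 5% CO2. Detection: SteadyLite luciferase luminescence. Replication: one test per compound.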
# M1 agonist – M1 muscarinic receptor agonism | CHO-M1 cells, Fluo-4 calcium fluorescence, agonist mode; hits give high values | B-score at 10 µM | 64,000 compounds, 3% hits;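 active means fluorescence rise, raw or as B-score row- and column-corrected plate score, outside the 99.7% band of its plate's samples, either direction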
# * = called active by the depositor; / = not tested or not shown.
Structure,Ecoli tolC,SF-1 act,TNAP act DEA,M1 agonist,Autofluor 339,M1 antagonist,Ec RNAP inh,RORA act
CSc1oc(-c2ccco2)nc1S(=O)(=O)c1ccc(F)cc1,-1,-14,1,1.2,1.1,-0.49,7,-20
COc1cc(CN2CCN(c3ccccc3F)CC2)cc(OC)c1O,-18,-8,0.9,0.86,1,-0.19,7,-6
COC(=O)c1sc(NC(=O)c2ccco2)nc1C,-1,50*,0.9,-2.7,1,0.2,4,28
CCCCCC1CC(CC#CCN2CCOCC2)C(=O)O1 (stereo unspecified),3,-13,0.8,-0.28,1,0.49,4,-8
Cn1c(=O)[nH]c(=O)c2c1nc(N1CCCC1)n2CC(O)COc1ccccc1 (stereo unspecified),-3,-19,0.9,-0.063,1.1,0.38,3,-2
Cc1cccc2cc(CN(Cc3nnnn3Cc3ccco3)C3CCCC3)c3nnnn3c12,28,10,0.9,-0.39,1.1,2.4*,0,12
CC(=O)Nc1ccc(N2CCN(C(C)=O)CC2)cc1,-29,-5,0.9,-0.51,1,0.35,8,-3
COc1cc(CN2CCSCC2)cc(OC)c1OC,-14,2,0.9,-0.14,1,0.035,5,-8
Brc1ccc(-c2nn3c(-c4ccncc4)nnc3s2)o1,-20,1,0.9,0.92,1.5,-3.1*,-7,-6
NC1=NC2(CCC(c3ccccc3)CC2)n2c(nc3ccccc32)N1 (stereo unspecified),36,-15,1.9,0.11,1.1,-0.2,2,6
COC(=O)C(NC(C)=O)(Nc1ccc(Br)cc1)C(=O)OC,-7,2,0.9,-1.2,1.1,-1.9,/,-12
COc1ccc(-c2nnnn2-c2ccccc2OC)cc1,6,12,1,0.045,1.1,-0.77,0,6
Cc1nnc(SCC(=O)c2c(N)n(C)c(=O)n(C)c2=O)n1Cc1ccccc1,-4,2,1,0.25,1.1,0.67,-3,-18
CCOC(=O)C1CCN(C/C=C/c2ccccc2OC)CC1,-20,6,0.9,-0.31,1,-0.08,2,0
CCOC(=O)C1=C(C)NC(=O)NC1c1c(C)nn(-c2ccccc2)c1Cl (stereo unspecified),3,4,0.9,-0.091,1.1,0.3,10,-1
Cc1cc(N(C)Cc2ccccc2)nc(-c2ccccc2)n1,26,/,0.9,/,1.1,/,-3,/
CCN(CC)/C(=N/O)NC(=O)NS(=O)(=O)c1ccc(C)cc1,-14,12,0.9,-0.32,1.1,0.84,6,3
Cc1ccc(C(C)C)c(OCC(=O)Nc2ccccc2N2CCN(C)CC2)c1,10,5,0.8,0.8,1.2,-0.22,4,-7
CCCOc1ccc(N2C(=O)C3ON(c4ccccc4)C(c4ccc(O)c(OC)c4)C3C2=O)cc1 (stereo unspecified),6,5,0.8,-0.4,1,0.44,8,-9
Cc1cccc(-c2nnc(SCC#N)n2Cc2ccccc2)c1,3,-7,0.9,-0.39,1.1,0.09,4,-15
Cc1cc(OCCN2CCCC2)ccc1C(C)C,6,-2,0.9,-1.6,1.1,-0.77,6,-5
COc1ccc(C(=O)c2coc3ccc(O)c(CN4CCCC4)c23)cc1,-1,0,0.8,-0.065,1,-0.55,5,-2
Cn1c(=O)[nH]c(=O)c2c1nc(CN1CCN(c3ccc(F)cc3)CC1)n2CCc1ccccc1,-5,8,/,/,1.1,/,/,0
CCOC(=O)N1CCN(Cc2c(F)cccc2Cl)CC1,-2,-5,0.9,-1.2,1.1,0.21,4,-18
Cc1ccc2occ(C(=O)c3ccco3)c(=O)c2c1,-16,19,0.9,-0.0013,1,0.29,7,-4
CCOC(=O)N1CCC(NC(=O)CCS(=O)(=O)c2ccc3c(c2)CCN3C(=O)CC)CC1,-18,16,0.9,0.4,1.1,-0.72,1,-6
COc1ccccc1OCc1nnc(SCCN2CCOCC2)o1,3,0,0.9,0.75,1.1,0.47,5,-2
COc1cccc(CN2CCN(c3ncccn3)CC2)c1,1,-16,0.9,-0.36,1.1,0.17,7,-20
COc1ccc(Cl)cc1S(=O)(=O)N1CCN(C(=O)COc2ccccc2)CC1,-1,5,0.9,-0.11,1.1,-0.48,6,-21
Cc1nc2ccc(S(=O)(=O)NCC(=O)N3CCc4ccccc43)cc2s1,-10,12,0.9,0.47,1.1,-0.026,-4,-2

# Profiles as entered above. Order of values: Ecoli tolC	SF-1 act	TNAP act DEA	M1 agonist	Autofluor 339	M1 antagonist	Ec RNAP inh	RORA act
# Listed for Cc1nnc(SCC(=O)c2c(N)n(C)c(=O)n(C)c2=O)n1Cc1ccccc1 → -4	2	1	0.25	1.1	0.67	-3	-18
# Listed for COC(=O)C(NC(C)=O)(Nc1ccc(Br)cc1)C(=O)OC → -7	2	0.9	-1.2	1.1	-1.9	/	-12
# Listed for Cc1ccc(C(C)C)c(OCC(=O)Nc2ccccc2N2CCN(C)CC2)c1 → 10	5	0.8	0.8	1.2	-0.22	4	-7
# Listed for CCN(CC)/C(=N/O)NC(=O)NS(=O)(=O)c1ccc(C)cc1 → -14	12	0.9	-0.32	1.1	0.84	6	3
# Listed for COc1cc(CN2CCN(c3ccccc3F)CC2)cc(OC)c1O → -18	-8	0.9	0.86	1	-0.19	7	-6

# More structures.
Structure,Ecoli tolC,SF-1 act,TNAP act DEA,M1 agonist,Autofluor 339,M1 antagonist,Ec RNAP inh,RORA act
COc1ccc(C(=O)N2CCC(N3CCN(c4ccccc4)CC3)CC2)cc1OC,8,-13,1,-0.3,1.1,-1.2,1,-36
Cc1ccc2[nH]c3nc(SCCN4CCOCC4)nnc3c2c1,-16,42,0.9,-0.15,1,0.94,6,28
CCCc1[nH]nc2c1C(CCc1ccccc1)C(C#N)=C(N)O2 (stereo unspecified),49,23,1,2.7*,1,0.095,-2,-8
CCOC(=O)c1ccc(NC(=O)CCC(CC)C(=O)O)cc1 (stereo unspecified),0,7,0.9,-0.99,1.1,0.25,2,-4
Fc1ccc(CN2CCCCCCC2)cc1F,-15,1,0.9,0.54,1.1,-0.49,8,-7
Cc1ccc(N2C(=O)[C@@H]3[C@H](C2=O)C2CCCN2[C@@H]3C(=O)c2ccccc2)cc1 (stereo partly specified),-1,-8,1,6.4,1,0.66,9,-18
CCOC(=O)N1CCC(NC(=O)c2cc(S(=O)(=O)N3CCC4(CC3)OCCO4)ccc2F)CC1,-9,-2,1,-2.2,1.4,0.018,0,-14
Cc1nnc(SCC(=O)N2CCc3ccccc32)s1,0,11,0.9,-0.46,1.1,0.022,-8,21
Cn1c(-c2ccccc2)cnc1SCC(N)=O,-4,16,0.9,-0.023,1.2,-0.14,7,-3
Cc1ccc2nc(NC3=NCN(CCc4ccccc4)CN3)nc(C)c2c1,13,-3,0.9,-0.41,1.1,-6*,-5,-3
COc1ccc(-c2nnc(SCc3csc(N)n3)n2C)cc1,-4,0,0.9,0.37,1.1,-0.26,1,11
Cc1cc(=O)[nH]c2n[nH]c(-c3ccccc3)c12,-11,35,1,-0.61,1.5,0.014,-5,-6
CC(=O)Nc1cccc(NC(=O)CSc2nc(C)c(C)c(C)c2C#N)c1,14,15,0.9,0.022,1.1,0.35,0,13
C#CC1(O)CC(C)NCC1(C)CCC#N (stereo unspecified),-24,7,1,-0.47,1.1,0.13,3,5
COc1ccc(C)cc1-n1nnnc1SCC(=O)Nc1cc(C)on1,-7,-1,0.8,-0.05,1,-0.13,0,-20
CCOC(=O)C1CCCN(Cc2c(Cl)cccc2Cl)C1 (stereo unspecified),-6,-6,1,2,1.1,-0.46,-1,5
COc1cccc2cc(C(=O)NC(C)C3CCCO3)c(=O)oc12 (stereo unspecified),-24,10,0.9,-1.1,1.3,-0.092,9,11
CC(CN1CCNCC1)(NS(=O)(=O)c1ccccc1)c1ccccc1 (stereo unspecified),1,11,0.8,-0.44,1.1,0.36,5,-11
COc1ccc(-c2nnc(NC(=O)c3ccc(S(=O)(=O)N4CCCc5ccccc54)cc3)o2)cc1,15,-14,1,-0.19,2.1*,0.078,4,-17
COc1ccc(C(=O)N2CCN(C(=O)c3cc(OC)c(OC)c(OC)c3)CC2)cc1,-10,-2,0.9,1.3,1.1,-0.12,14,13
CCNc1nc(Oc2ccc(=O)n(C)n2)nc(N2CCOCC2)n1,-18,4,0.9,-1,0.98,0.17,3,-8
COCCNC(=O)C(c1ccc(O)cc1)N(Cc1ccco1)C(=O)CCC(=O)Nc1nccs1 (stereo unspecified),-10,13,0.9,0.076,1.1,0.58,4,-20
CCC1=C/C(=C/N(C)c2ccccc2)C(=O)S1,-5,-9,0.9,0.12,1.1,0.45,5,6
CC1CCCN(Cc2nc3c(c(=O)n(C)c(=O)n3C)n2CC(N)=O)C1 (stereo unspecified),-1,-16,0.9,-1.1,1.1,0.28,10,-7
O=c1c2nnn(Cc3ccccc3)c2ncn1-c1ccccc1,-13,-6,1,0.46,1,0.024,9,4
CCn1c(SCC(=O)Nc2ccccc2-c2ccccc2)nnc1-c1ccoc1C,19,10,0.9,-0.2,1.1,-0.52,7,6
S=c1nc(-c2ccccc2)n(CCCN2CCOCC2)c2c1CCCC2,-6,10,0.9,-0.8,1,0.19,-8,-7
N#Cc1cc2c(nc1SCC(=O)N1CCCCC1)CCCC2,13,-13,0.9,-0.079,1,0.5,3,-3
CC(C)C(=O)N1CCN(c2ccccc2N)CC1,-5,-7,0.9,-0.29,1,0.032,11,-1
C/C(=C\c1ccccc1)CN1CCN(c2ccccc2)CC1,10,/,0.9,0.0019,1.1,0.18,4,/
COc1cc(OC)cc(C(=O)N2CCC(N3CCN(c4ccccc4)CC3)CC2)c1,-14,-4,1,-0.29,1.1,0.77,6,-26
CCOC(=O)C1(O)CSc2nc3sc(C(=O)O)c(C)c3c(=O)n21 (stereo unspecified),-8,-7,0.9,-0.0069,1.5,-0.16,1,5
CC(=O)c1cccc(NC(=O)C2CCCCC2)c1,-5,20,0.9,0.26,1.2,0.11,/,-24
CC(=O)Nc1nc2c(c3c1c(=O)oc1ccccc13)CC(C)CC2 (stereo unspecified),-2,4,0.8,0.15,1.3,0.55,3,-22
CCN1CCN(Cc2ccc(OC)c(OCc3ccccc3)c2)CC1,3,0,0.9,1.2,1.1,1,2,-4
COCC(C)NCc1ccccc1C (stereo unspecified),-19,-2,1,-1.3,1.1,0.5,12,-5
COc1ccc(Cl)c(Cn2c(NCC(C)O)nc3c2c(=O)n(C)c(=O)n3C)c1 (stereo unspecified),-2,6,1,-0.72,1.1,0.45,8,-17
O=C1COc2ccc(C(=O)COC(=O)c3ccc4ccccc4n3)cc2N1,-16,6,0.9,-0.013,1.1,0.17,7,-13
Cn1c(SCC(=O)N2CCCc3ccccc32)nnc1-c1ccccc1,-8,-13,1,0.72,1.1,0.71,5,-26
O=C(c1cc2n(n1)C(C(F)(F)F)CC(c1ccc(F)cc1)N2)N1CCCC1 (stereo unspecified),3,2,0.9,0.27,1.1,1.1,3,-3
O=C(O)C1CC=CCC1C(=O)Nc1ccc(S(=O)(=O)N2CCCc3ccccc32)cc1 (stereo unspecified),61*,12,0.9,0.022,1,0.42,5,3
CC1CCCCC1NC(=O)c1ccc(N2CCCC2=O)cc1 (stereo unspecified),-6,4,1,2,0.96,1.7,-7,21
O=C(c1ccco1)N1CCN(Cc2ccc(Cl)cc2)CC1,-1,-27,0.9,0.2,1.1,-0.025,10,-5
Cc1csc2ncc(C(=O)Nc3ccccc3F)c(=O)n12,11,50*,1,-0.06,1.1,-1.8,2,40

# Screening data deposited in PubChem by several laboratories.

# Some of the compounds tested, so the mix of outcomes need not match the whole.
